Bioassay records from PubChem BioAssay.
NS1 function inh – influenza NS1 inhibition; AID 2326; Potency, µM (top dose mostly 46.1 µM), inactives show top-dose activity, positive = more growth; 270,000 tested, 0.4% active; S. cerevisiae slowed by influenza A NS1, growth recovery by OD600; also: actives are rising curves; nearly all actives have a fitted effect of over 50% in size
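S. cerevisiae expressing influenza A NS1, grown in glucose, washed, then diluted 1:100 into pH 6.0 -URA galactose medium with 23 nl compound. Growth recovery read as OD600; NS1-free strain serves as control.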
RE007 growth inh – less growth of the S. pombe RE007 Vpr strain. Potency, µM (doses to about 92.2 µM), inactives show at the highest dose activity change, negative = less growth. AID 651644. S. pombe RE007 Vpr strain, BacTiter-Glo ATP luminescence, 24 h; control for the full effect not named in the record. 360,000 tested, 0.21% active; active = well fitted falling curve with a large enough effect; inconclusive = small, poorly fitted or top-dose-only effect; inactive = no such curve, though single readings can be large or run the other way;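 also: % is scaled to controls: 0 for no effect and ±100 for the full control effect; nearly all actives have a fitted effect of over 50% in size; the assay follows cell death caused by Vpr and the record does not say whether a fall means rescue or toxicity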
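Fission yeast RE007 carrying one integrated HIV-1 vpr copy, seeded at OD 0.01 in PMG+AL medium with 23 nL pinned compound. Grown 24 h at 30 degrees; viability read by BacTiter-Glo luminescence after 5 min.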
Lassa entry inh – inhibitors of Lassa virus binding or cell entry. Potency, µM (titrated, usually from 37.9 µM), inactives show at the highest dose activity change, negative = inhibition, most hits filed as inhibitors. AID 540256. Lassa virus pseudotype entry inhibition, cell reporter; control for the full effect not named in the record. 300,000 tested, 1.2% active; active means well fitted inhibition curve with a large enough effect; inconclusive means small, poorly fitted or top-dose-only effect, or effect the other way; inactive means flat fitted curve, though single readings scatter; tested in HEK293 cells; also: % is scaled to controls: 0 for no effect and ±100 for the full control effect; nearly all actives have a fitted effect of over 50% in size; luciferase read-out
Cruzain noTriton – inhibitors of Trypanosoma cruzi cruzain without detergent; purified cruzain, Z-FR-AMC fluorescence, no detergent; Potency, µM, without a hit: max response, negative = inhibition, most hits filed as inhibitors; 200,000 tested, 2.3% active; AID 1476; active = well fitted curve in the direction sought with a large enough effect; inconclusive = small, poorly fitted or top-dose-only effect, or another doubt; inactive = no such curve, though single readings can be large; an effect the other way counts as inactive or inconclusive;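 also: plate controls were enzyme without inhibitor for no effect and buffer without enzyme for full effect; nearly all actives have a fitted effect of over 40% in size; top concentration of the series not given in the record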
Target sequence (P25779 123-467 limits assumed): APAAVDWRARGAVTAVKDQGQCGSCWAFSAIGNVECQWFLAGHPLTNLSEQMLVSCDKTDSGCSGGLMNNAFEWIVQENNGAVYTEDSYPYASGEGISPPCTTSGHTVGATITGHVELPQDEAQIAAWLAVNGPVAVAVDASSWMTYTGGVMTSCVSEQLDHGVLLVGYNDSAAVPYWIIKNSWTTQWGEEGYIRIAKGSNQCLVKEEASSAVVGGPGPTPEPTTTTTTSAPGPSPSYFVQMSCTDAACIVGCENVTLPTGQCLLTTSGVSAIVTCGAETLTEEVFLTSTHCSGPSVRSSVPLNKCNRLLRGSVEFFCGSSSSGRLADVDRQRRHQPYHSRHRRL
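Detergent-free condition (0.00005% Triton X-100) in acetate buffer pH 5.5 with DTT. 1.5 nM enzyme and compound were pre-mixed 15 min, then 2 uM Z-FR-AMC substrate added; reaction progress from fluorescence change between first and third reads (60 s).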
Marburg entry inh – Marburg virus entry inhibition; Marburg virus pseudotyped entry inhibition, cell reporter; control for the full effect not named in the record; about a third of the inactives were read at about 46 µM; Potency, µM (titrated, usually from 37.8 µM), without a hit: at the highest dose activity change, negative = inhibition, actives largely listed as inhibitors; 300,000 tested, 1.8% active; active = well fitted inhibition curve with a large enough effect; inconclusive = small, poorly fitted or top-dose-only effect, or effect the other way; inactive = flat fitted curve, though single readings scatter; tested in HEK293 cells; about a fifth of its hits are not listed in these tables; also: % is scaled to controls: 0 for no effect and ±100 for the full control effect; luciferase read-out
Cruzain inh Det – cruzain (T. cruzi) inhibition with detergent; P25779; purified cruzain, Z-FR-AMC fluorescence, 0.01% Triton; Potency, µM, inactives show max response, negative = inhibition, hits mostly inhibitors; 200,000 tested, 0.43% active; AID 1478; active = well fitted curve in the direction sought with a large enough effect; inconclusive = small, poorly fitted or top-dose-only effect, or another doubt; inactive = no such curve, though single readings can be large; an effect the other way counts as inactive or inconclusive;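 also: plate controls were neutral wells for no effect and buffer without enzyme for full effect; nearly all actives have a fitted effect of over 40% in size; top concentration of the series not given in the record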
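Detergent-containing arm of a paired screen for aggregation-based inhibition: 0.01% Triton X-100 present. Cruzain at 1.5 nM cleaved 2 uM Z-FR-AMC at pH 5.5 with 5 mM DTT; AMC fluorescence gain over 60 s measured activity.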
SARS PLP yeast – SARS-CoV PLP inhibition in yeast; AID 485353; Potency, µM (series often up to 32.9 µM), for the others: top-dose activity, positive = growth rescue; 330,000 tested, 0.19% active; S. cerevisiae expressing SARS-CoV PLpro, growth rescue; control for the full effect not named in the record; also: 0% is about no effect; nearly all actives have a fitted effect of over 55% in size; growth read by luminescence after 48 h
2A StopGo – lowers the luciferase signal of an FMDV 2A StopGo reporter | human cells with a luciferase reporter of 2A StopGo recoding; control for the full effect not named in the record | AID 1159524 | 410,000 tested, 1.2% active | Potency, µM (doses to about 57.9 µM), for inactives: top-dose signal change, negative = less light; active = well fitted falling curve with a large enough effect; inconclusive = small, poorly fitted or top-dose-only effect; inactive = no such curve, though single readings can be large or run the other way; tested in HEK293T cells; also: % is scaled to controls: 0 for no effect and ±100 for the full control effect; nearly all actives have a fitted effect of over 45% in size; luciferase light after 4 h
* marks the source's active call; other numbers are inactive results; u = inconclusive; x = no result given; & = joins results of further samples; [ ] = dose if it differs, or a comment. Unless noted, calls follow the shape of the dose curve; as a rule, active means well fitted rising curve with a large enough effect; inconclusive means small, poorly fitted or top-dose-only effect; inactive means no such curve, though single readings can be large or run the other way. Potency is read from the fitted curve at half-maximal effect.

SMILES | NS1 function inh | RE007 growth inh | Lassa entry inh | Cruzain noTriton | Marburg entry inh | Cruzain inh Det | SARS PLP yeast | 2A StopGo
O=C(COC(=O)c1ccccn1)Nc1nc(-c2cccc([N+](=O)[O-])c2)cs1 | 2% | 13% | 1% | x | -1%[46.1 µM] | x | 0% | -21%
COc1ccc(S(=O)(=O)NCCS(=O)(=O)N2CCN(c3ccccc3F)CC2)cc1 | x | x | u | -7% | x | -3.7% | x | 10%
CCOC(=O)c1c(NC(=O)/C=C/C(=O)O)sc(C)c1-c1ccc(F)cc1 | 9% | 0% | -22% | x | -26%[46.1 µM] | x | -2% | 32µM*
O=C(O)c1cnn2c(-c3ccccc3)ccnc12 | -4% | -11% | 7%[46.1 µM] | x | 3%[46.1 µM] | x | -1% | -12%
N#CC1CCN(c2ncccc2[N+](=O)[O-])CC1 | 5% | 4% | 8% | x | -17%[46.1 µM] | x | 1% | -4%
COc1ccc(OC)c(/C=N/Nc2nc(C)cc(=O)[nH]2)c1 | -1% | 3% | 13% | x | u | x | -2% | -2%
O=S(=O)(N/N=C1/CCCc2ccccc21)c1ccc(Br)cc1 | -4% | 1% | -4% | 12% | -3%[46.1 µM] | -11% | -34% | 19%
CCOC(=O)C(=Nc1ccc(Cl)cc1)NO | 1% | 1% | 13% | -3% | u | -1.4% | u | -20%
COc1cccc(NC(=O)N2CCCC2C(=O)NCc2ccc(Cl)cc2)c1 (stereo not drawn) | -2% | 5% | x | x | x | x | 2% | 0%
Cc1ccc(S(=O)(=O)N2CCC(C(=O)NCC3CC3)CC2)cc1 | -8% | -9% | -1%[46.1 µM] | x | 5%[46.1 µM] | x | 1% | -11%
CC(C)Oc1ccc(N2C(=O)c3ccccc3C2=O)cc1 | 2% | u | 1% | 9% | -1% | -2.1% | 14% | 60%[activator]
N#Cc1c(-c2ccccc2)[nH]c(=S)[nH]c1=O | 2% | -16%[3.69 µM] | 0% | 1% | -2% | -4.9% | 21% | 10%
Cc1ccc(C)c(SCc2noc(C(=O)NC(C)C)c2C(=O)O)c1 | 9% | -6% | x | 13% | x | -1.1% | -6% | -15%
C=CCOc1ccc(/C=C2\SC(=S)N(NS(=O)(=O)c3ccc(C)cc3)C2=O)cc1 | 10% | -16% | 27%[46.1 µM] | x | u | x | 3% | 21%
CCCC(c1nnnn1CS(=O)(=O)c1ccc(C)cc1)N1CCN(c2ccc(F)cc2)CC1 (stereo not drawn) | -85% | 36% | u | 9% | u | 1.8% | -2% | -20%
Cc1nn(-c2ccccc2)c(C)c1/C=C/C(=O)OCC(=O)N(C)C1CCS(=O)(=O)C1 (stereo not drawn) | 0% | -4% | u | x | 49% | x | 1% | 23%
CCN(C(=O)CSc1ccc2ccccc2n1)C1CCCCC1 | x | 7% | u | x | -14% | x | -21% | -13%
O=C(NNC(=S)Nc1ccccc1Cl)c1ccncc1 | 6% | -2% | 22% | x | -9%[46.1 µM] | x | 2% | 14%
O=C(Cc1cccs1)Nc1ccc([N+](=O)[O-])cc1 | -20% | -3% | x | x | x | x | -10% | 25%
COc1ccc(-c2nc(CSCC(=O)N3CCC(C(N)=O)CC3)c(C)o2)cc1OC | u | -1% | 3% | -7% | -3% | -1.0% | 0% | -13%
c1ccc(-c2csc(NC3CCCCC3)n2)cc1 | -6% | -6% | u | x | u | x | -3% | 24%
COc1ccccc1C(=O)NC(C(=O)NCCc1nc2ccccc2[nH]1)=C(C)C | 4% | -4% | -8%[46.1 µM] | x | u | x | -3% | 7%
Cc1cccc(NC(=O)c2ccc3c(=O)n(CC4CCCO4)c(=S)[nH]c3c2)c1 (stereo not drawn) | 0% | -2% | u | x | 2%[46.1 µM] | x | -12% | u
COc1ccc(OCc2cc(C(=O)N3CCCC(CO)C3)no2)c2ccccc12 (stereo not drawn) | 1% | 4% | -12% | x | -13% | x | 3% | 18%
Cc1ncc(CCl)c2c1OC(C)(C)OC2 | 5% | 14% | 0% | 9% | 26% | -3.4% | 5% | -3%

Next part.
SMILES | NS1 function inh | RE007 growth inh | Lassa entry inh | Cruzain noTriton | Marburg entry inh | Cruzain inh Det | SARS PLP yeast | 2A StopGo
O=C(NCc1cccnc1)c1nn(-c2ccc(Cl)cc2)nc1CO | x | x | -15%[46.1 µM] | -7% | u | 2.0% | x | u
Cc1cccc(CS(=O)(=O)c2ncc(Cl)c(C(=O)NCc3ccc4c(c3)OCO4)n2)c1 | -1% | 1% | x | x | x | x | 4% | 32µM*
COc1ccc(NC(=O)c2oc3ccccc3c2NC(=O)Cc2ccc(F)cc2)c(OC)c1 | x | x | -11%[46.1 µM] | 3% | -21%[46.1 µM] | -1.9% | x | -20%
O=C(NCC1CCS(=O)(=O)C1)Oc1ccccc1 (stereo not drawn) | 9% | -3% | 16% | 5% | -1% | 1.0% | -3% | -12%
COc1ccc(C)cc1NC(=O)CSc1nc(=O)n(Cc2ccco2)c2c1CCC2 | x | x | 7%[46.1 µM] | -2% | x | -11% | x | u
CCOC(=O)N1CCN(C(=O)c2ccc(CNS(=O)(=O)c3ccc(C)cc3)cc2)CC1 | -3% | 21% | -17% | u | -16% | 7.7% | -11% | -5%
CCCc1nnc(NC(=O)CCC(=O)N2CCN(Cc3ccc(Cl)cc3)CC2)s1 | 6% | -4% | x | x | x | x | 5% | -22%
CCN(CC)CCNC(=O)C1c2ccccc2C(=O)N(C)C1c1cn(C)c2ccccc12 (stereo not drawn) | -15% | -10% | 4% | 5% | 0% | 3.9% | 0% | -18%
O=C(/C=C/c1ccnc2ccccc12)c1cccs1 | -69% | u | u | x | 3.2µM* | x | -4% | -70%
CCC(=O)C1=C(c2cccc([N+](=O)[O-])c2)N(C(=O)CC)n2c(nnc2C2CCCCC2)S1 | x | x | u | -19% | x | 0.1% | x | 0%
O=C(Nc1ccc(F)c(F)c1)C1CCCN(S(=O)(=O)c2cnc[nH]2)C1 (stereo not drawn) | -2% | -4% | x | x | x | x | 3% | -3%
Cc1ccccc1/C=C1\C(=O)Nc2ccc(F)cc21 | -10% | -9% | 9%[46.1 µM] | x | u | x | -5% | -7%
COc1ccccc1Cn1c(CNS(=O)(=O)c2ccc(Cl)s2)nc2cccnc21 | x | x | 19%[46.1 µM] | -19% | x | -4.0% | x | 54%[activator]
COc1cc(C(=O)Oc2ccccc2/C=N/NC(=O)c2ccc(Cl)cc2Cl)cc(OC)c1OC | 4% | 22% | u | 1% | u | -8.9% | -3% | 15%
COc1ccc(-c2csc(NC(=O)c3cc(C)oc3C)n2)cc1OC | 22% | -13% | u | x | u | x | -13% | u
Cc1cc(N)c(C)c([N+](=O)[O-])c1C | 17% | -6% | -1% | 0% | -2% | 0.3% | -12% | -3%
CCOc1ccccc1-n1c(SCC(=O)NC2CCCC2)nnc1-c1ccoc1C | -5% | -11% | 1% | -7% | -15% | 2.2% | 4% | -8%
Cc1cccc(C)c1N1CCN(c2cc(Cl)nc(N)n2)CC1 | -3% | 1% | -7% | x | 9% | x | -3% | -12%
CC(=O)c1ccc(N2C(=NC(=O)CCC3CCCC3)SC3CS(=O)(=O)CC32)cc1 (stereo not drawn) | -5% | 2% | x | x | x | x | 2% | u
CS(=O)(=O)N(CCc1ccccc1)CC(=O)NCc1ccccn1 | 14% | 11% | 16% | 4% | 12% | 5.7% | 0% | 9%
CCn1c(SCC(=O)NCCc2ccccc2)nc2sc3c(c2c1=O)CCN(C)C3 | -2% | -20% | 3% | x | 25% | x | -1% | -9%
N#CC(C(=O)c1ccc(S(=O)(=O)N2CCCCCC2)cc1)c1nc2ccccc2[nH]1 (stereo not drawn) | -26% | -2% | 4% | 1% | -8% | -0.1% | -5% | x
O=C(OCn1nnc2ccccc2c1=O)c1ccc2ncsc2c1 | 2% | 9% | u | -15% | u | -10% | 7% | -11%
Cc1cc(C)c(S(=O)(=O)NCC(c2ccco2)N2CCN(c3ccccc3)CC2)c(C)c1 (stereo not drawn) | x | x | 0%[46.1 µM] | 0% | x | -6.6% | x | 11%
COc1ccc(S(=O)(=O)N2CCN(C(=O)c3cc4c(s3)CCC4)CC2)cc1 | x | 9% | u | x | 0% | x | 1% | u

The list continues.
SMILES | NS1 function inh | RE007 growth inh | Lassa entry inh | Cruzain noTriton | Marburg entry inh | Cruzain inh Det | SARS PLP yeast | 2A StopGo
CC1Sc2ccc(S(=O)(=O)N(C)Cc3ccccc3)cc2NC1=O (stereo not drawn) | -21% | 1% | u | x | -1%[46.1 µM] | x | -5% | 28µM*
O=C(NCCc1ccccc1Cl)C1CCC(=O)N(Cc2cccc(C(F)(F)F)c2)C1 (stereo not drawn) | 3% | -12% | 0% | x | -12% | x | 0% | -17%
CN1C(C(=O)Nc2ccc(F)cc2F)=CC(c2cccs2)=NS1(=O)=O | -1% | -4% | 16%[46.1 µM] | 12% | 27%[46.1 µM] | -1.4% | -7% | 0%&11%
Cc1ccc(-c2cc(C(=O)O)n[nH]2)s1 | x | -21% | 14% | x | 14%[46.1 µM] | x | 3% | 0%
Cc1cc(C)n(-c2nc3ccccc3c(=O)n2OCC(C)C)n1 | -1% | 14% | u | x | u | x | 1% | -12%
CCOc1ccc(N2C(=O)/C(=C/c3ccccc3OCC(=O)OC)N(CC(=O)OC)C2=S)cc1 | 12% | -2% | -5% | x | 3%[46.1 µM] | x | -1% | -19%
CCCn1c(SCC(=O)NC2CC2)nnc1-c1ccccn1 | 5% | -5% | 10%[46.1 µM] | x | 14%[46.1 µM] | x | -4% | -2%
O=C(O)CCc1ccc(-c2ccccc2)n1Cc1ccco1 | -39% | 4% | 1% | -8% | u | -3.8% | -7% | 12%
CCNC(=S)NNC(=O)c1cc(-c2ccc(OCC)cc2)nc2ccccc12 | 7% | u | 1.2µM* | u | u | -1.6% | -26% | 13µM*
Cn1nc(-c2ccc(Cl)cc2)cc1NC(=O)CCCC(=O)O | 3% | 2% | x | x | x | x | 0% | -3%
O=C(COc1ccc(F)cc1Br)NCc1nnc2ccccn12 | x | 9% | 3% | x | 21% | x | 4% | 8%
